Screens (PubChem BioAssay)
PKD1 kinase inh: inhibitors of human PKD1 kinase, biochemical, fluorescence polarization | PKD1 kinase fluorescence polarization assay | 200,000 compounds, 0.056% hits | Serine/threonine-protein kinase D1 (Homo sapiens), Q15139 | inhibition, %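 (about 10 µM by stock and volumes)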 | AID 797, 2007;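 active means inhibition of 50% or more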;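 further: controls were vehicle for no effect and a reference inhibitor for full effect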
GALR2 agonist: GALR2 receptor agonists, primary screen, cell-based; GALR2-expressing cells, agonist activation read-out; AID 803, 2007; 140,000 compounds, 0.48% hits; Galanin receptor type 2 (Homo sapiens), O43603; activation, %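 (tested at 5 µM)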;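 active means above mean plus 3 SD of all compounds, about 5% in these data, not always enough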;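 further: 0% = vehicle buffer wells and 100% = reference agonist at full effect; tested in CHO reporter cells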
Target sequence (O43603 whole entry, looked up): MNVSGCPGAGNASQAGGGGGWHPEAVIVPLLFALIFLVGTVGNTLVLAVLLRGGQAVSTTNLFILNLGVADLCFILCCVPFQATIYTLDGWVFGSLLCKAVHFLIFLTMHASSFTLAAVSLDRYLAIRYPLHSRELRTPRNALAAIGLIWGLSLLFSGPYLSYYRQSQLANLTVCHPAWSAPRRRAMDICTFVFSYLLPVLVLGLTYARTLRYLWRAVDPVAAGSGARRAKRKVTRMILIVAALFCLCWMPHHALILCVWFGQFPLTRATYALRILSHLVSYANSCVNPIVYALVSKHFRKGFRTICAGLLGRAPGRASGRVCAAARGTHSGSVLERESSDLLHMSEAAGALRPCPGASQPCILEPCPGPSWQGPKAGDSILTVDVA
RGS16-Gao HTS: modulators of RGS16 binding to Galphao, primary screen, biochemical, human proteins, multiplexed bead flow cytometry | Regulator of G-protein signaling 16 (Homo sapiens) + Guanine nucleotide-binding protein … | bead-based flow cytometry RGS16-Galphao binding, fluorescence; actives lie on both sides | binding response (% of control), % at 10 µM | 220,000 compounds, 0.38% hits;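 active means below 25% or above 175%, edge rows of some plates excepted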;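 further: Galphao activated by GDP with aluminum fluoride before binding; 100% = wells without compound and 0% = beads without RGS; some results beyond the cut were filed as inactive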
Target sequence (O15492 whole entry, looked up): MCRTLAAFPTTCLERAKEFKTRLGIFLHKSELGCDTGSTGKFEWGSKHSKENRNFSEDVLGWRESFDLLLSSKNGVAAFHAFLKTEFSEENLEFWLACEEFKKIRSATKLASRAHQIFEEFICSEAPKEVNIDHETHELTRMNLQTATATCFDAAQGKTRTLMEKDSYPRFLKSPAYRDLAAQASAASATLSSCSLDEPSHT
Target sequence (P09471 whole entry, looked up): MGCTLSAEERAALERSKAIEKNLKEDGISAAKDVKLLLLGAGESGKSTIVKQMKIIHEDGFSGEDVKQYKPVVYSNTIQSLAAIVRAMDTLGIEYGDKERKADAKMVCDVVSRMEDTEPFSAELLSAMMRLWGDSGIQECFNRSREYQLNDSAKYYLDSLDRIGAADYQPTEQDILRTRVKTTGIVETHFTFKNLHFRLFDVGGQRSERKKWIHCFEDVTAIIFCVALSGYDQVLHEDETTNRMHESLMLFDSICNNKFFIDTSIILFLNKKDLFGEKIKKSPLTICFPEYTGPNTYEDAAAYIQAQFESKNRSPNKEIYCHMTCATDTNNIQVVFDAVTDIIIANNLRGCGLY
HSV augment: enhancers of HSV replication in host cells, fold increase, host cell viability; HSV replication augmentation in cells; maximum fold increase; 220,000 compounds, 0.005% hits; AID 1956, 2009;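 active means peak rise of 1.5-fold or more in the series; inconclusive means self-fluorescent or not available for retest; tested in PC3 cells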;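 further: first round at 10 µM; read as green reporter fluorescence; hits show the peak of a series up to 25 µM; 1 = signal of infected wells without compound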
INS promoter inh: inhibitors of insulin promoter-driven GFP, primary screen, imaging, TRM-6 cells (human fetal islet line), eGFP reporter, cell count; reporter expression induced with tamoxifen; inhibition, % at 2 µM; 130,000 compounds, 0.9% hits;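 active means inhibition above the mean plus 3 SD, with well images judged a real hit on visual review, cut at about 60% in these data, passing the limit was not always enough; inconclusive means inhibition over the cutoff but images rejected on review; inactive means inhibition not above the cutoff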
INS promoter inh cell count: second read-out of INS promoter inh, no call of its own (marks repeat the call); normalized cell count, %; measured here: cell count, toxicity; reference of the scale not given here;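 cells exposed to compound for 48 h; stained nuclei by imaging scaled within each plate; lower means fewer cells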
HSV augment primary fold: further read-out of HSV augment, marked with its call; fold increase; compound at 10 µM; measured here: primary screen fold increase 10 uM; tested in PC3 cells;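 GFP signal in the first replicate; 1 = infected wells without compound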
* hit, by the source's call; i = inactive; ? = inconclusive; nt = not tested or not shown.

SMILES | PKD1 kinase inh | GALR2 agonist | RGS16-Gao HTS | HSV augment | HSV augment primary fold | INS promoter inh | INS promoter inh cell count
Cc1c2c(=O)n(-c3nc4ccccc4s3)nc-2cc(O)n1Cc1ccccc1 | nt | nt | 99.0 | i | 1.23 | nt | nt
O=C(Nc1ccc(N2CCCC2)c(Cl)c1)c1ccc([N+](=O)[O-])o1 | -1.1 | nt | 94.9 | i | 0.66 | nt | nt
Cc1nnc(SCC(=O)N/N=C/c2cn(-c3ccccc3)nc2-c2ccccc2)n1-c1ccccc1 | -6.4 | -2.1 | 63.1 | i | 0.82 | 0.0 | 103.0
COc1ccc(Cl)cc1NC(=O)CNc1ccccc1F | -7.6 | -0.6 | 90.0 | i | 0.96 | nt | nt
CSc1ccc(S(=O)(=O)N(CC(=O)NN=C2CCN(C)CC2)c2ccc(C)cc2)cc1 | -0.7 | nt | 100.9 | i | 0.9 | 35.7 | 97.8
O=C(Nc1nc(-c2cc3ccccc3oc2=O)cs1)c1ccc(Br)o1 | -6.7 | -1.5 | 101.2 | i | 0.99 | 40.0 | 39.0
C=CCNC(=S)N/N=C/c1ccc(OCc2ccccc2Cl)cc1 | -1.4 | -0.4 | 95.3 | i | 1.01 | -13.5 | 119.9
COc1ccc(CSC2=NCCN2)cc1Cl | 1.8 | -0.9 | 100.2 | i | 1.18 | 32.2 | 130.1
O=C(c1cccnc1)N1N=C2CCCCCC2C1(O)C(F)(F)F (centres undefined) | 1.1 | nt | 101.7 | i | 0.82 | nt | nt
Cc1cccc(NC(=O)c2cnn(C)c2)c1C | -15.3 | 0.0 | 100.4 | i | 1 | 31.4 | 64.9
COCCN(C(=O)/C=C/c1cccc([N+](=O)[O-])c1)c1c(N)n(Cc2ccccc2)c(=O)[nH]c1=O | nt | nt | 93.4 | i | 1 | nt | nt
O=C(CSc1cn(Cc2ccccc2)c2ccccc12)Nc1nccs1 | 8.1 | -4.5 | 100.6 | i | 0.95 | nt | nt
COc1cc(SC#N)ccc1N=Cc1c(C)[nH]n(-c2ccc(Cl)cc2)c1=O | -8.3 | 1.4 | 91.5 | i | 0.8 | -8.6 | 135.7
Cc1nn(Cc2cccc(C(=O)N3CCCC(C)C3)c2)c(C)c1[N+](=O)[O-] (centres undefined) | -7.7 | -0.5 | 102.9 | nt | nt | 25.0 | 137.0
CCc1cc2c(=O)[nH]c(N3CCOCC3)nc2s1 | -12.9 | -1.8 | 106.2 | i | 0.99 | nt | nt
CCCCNS(=O)(=O)c1ccc2nc(-c3cccs3)cc(C(=O)NCC(OC)OC)c2c1 | -8.5 | -1.3 | 111.5 | i | 0.9 | -14.3 | 86.6
Cc1cc(Br)ccc1OCCCCNCCO | 3.8 | -4.9 | 105.8 | i | 0.75 | 53.9 | 123.2
COc1ccc(-c2cc(C(F)(F)F)n3nc(C(=O)NCCCN4CCOCC4)cc3n2)cc1 | 1.9 | nt | 103.7 | i | 0.93 | nt | nt
O=C(Nc1nccc(-c2cccs2)n1)c1ccccc1Cl | 2.3 | -1.7 | 110.0 | i | 1.02 | 3.3 | 110.5
COc1ccc(Cl)c(NC(=O)Nc2c(C)n(-c3ccccc3)c(=O)n2C)c1 | -2.3 | -1.1 | 99.3 | i | 0.89 | 14.3 | 91.4
CSC(=S)N(C)C1CCS(=O)(=O)C1 (centres undefined) | -3.9 | -0.5 | 24.5* | i | 1.06 | 22.2 | 86.8
CC(C)(CCl)C(=O)Nc1ccc(C(F)(F)F)cc1 | 11.0 | nt | 101.9 | i | 0.84 | 84.6* | 126.4*
CCOC(=O)C1CCN(S(=O)(=O)c2ccc(C(=O)OC)cc2)CC1 | -12.6 | -0.9 | 100.8 | i | 0.67 | -14.3 | 100.6
O=C(CNC(=S)N(Cc1ccc(F)cc1)C1CCCCC1)NC1CC1 | 1.3 | -1.8 | 99.3 | i | 0.91 | -6.5 | 131.7
CC(Sc1nc2ccccc2s1)C(=O)NC1CCCc2ccccc21 (centres undefined) | -3.8 | -1.0 | 99.1 | i | 1.44 | nt | nt
Later entries:
SMILES | PKD1 kinase inh | GALR2 agonist | RGS16-Gao HTS | HSV augment | HSV augment primary fold | INS promoter inh | INS promoter inh cell count
Fc1ccc(NC(=S)NCc2ccc3c(c2)OCO3)cc1 | -0.9 | nt | 99.0 | i | 0.96 | nt | nt
Cc1cc(C)cc(C(=O)N2CC(=O)Nc3ccccc32)c1 | -6.0 | 1.7 | 75.3 | i | 0.6 | -192.9 | 14.5
CCN(CC)c1ccc(NC(=O)Nc2ccccc2C(F)(F)F)cc1 | 7.2 | -2.7 | 123.5 | i | 1.01 | -65.4 | 97.3
COC(=O)c1c(-c2ccco2)csc1NC(=O)C1CC=CCC1C(=O)O (centres undefined) | 10.1 | 0.6 | 98.6 | i | 0.93 | nt | nt
COc1ccc(Br)cc1S(=O)(=O)NCCN1CCOCC1 | -6.4 | nt | 103.0 | i | 0.97 | -17.6 | 92.9
CN(C)CCNc1nc2c(c(=O)[nH]c(=O)n2C)n1CC(O)COc1ccc(Cl)cc1 (centres undefined) | 9.4 | -3.2 | 101.9 | i | 0.9 | nt | nt
CCCC(C)C(=O)Nc1ccncc1 (centres undefined) | 1.5 | 0.1 | 44.5 | i | 0.79 | 7.9 | 108.3
COc1ccccc1C(=O)N1CCN(C2CCN(Cc3ccccc3)CC2)CC1 | -11.1 | -4.3 | 156.9 | nt | nt | -11.4 | 135.7
COc1ccc(CN(Cc2cccnc2)S(=O)(=O)c2ccc(-n3cnnn3)c(C)c2)cc1OC | -13.2 | -1.4 | 98.4 | i | 0.94 | nt | nt
CSc1nnc(C)c(=O)n1COC(=O)COc1ccc(Cl)cc1 | -8.0 | nt | 102.3 | i | 1.02 | -58.3 | 139.5
O=C1c2ccccc2C(Nc2ccc3c(c2)OCCO3)N1Cc1ccccc1 (centres undefined) | 4.1 | nt | 101.0 | i | 1.34 | nt | nt
Cc1ccc(C)c(OCC(=O)Nc2nonc2NC(=O)COc2cc(C)ccc2C)c1 | -19.1 | -1.0 | 103.9 | i | 1.01 | 37.5 | 127.8
CCOC(=O)C[n+]1c(C)csc1C | 8.1 | -1.1 | 142.2 | i | 1.11 | 38.5 | 117.2
Cc1ccc(-c2nnc3sc(-c4ccc5c(c4)OCCO5)nn23)cc1 | 8.2 | 8.3 | nt | nt | nt | 23.8 | 93.5
O=C1NC2=C(C(=O)CCC2)C(c2ccc3ncccc3c2)N1 (centres undefined) | -3.7 | -0.2 | 99.4 | i | 1.01 | 30.6 | 138.8
Cn1c2ccc(Cl)cc2c2nc3ccccc3nc21 | -9.3 | -0.5 | 103.6 | i | 0.69 | nt | nt
O=C(c1ccccc1)c1c[nH]c(C(=O)NCCCN2CCOCC2)c1 | -5.2 | -0.8 | 98.1 | i | 0.89 | -2.0 | 117.0
COc1ccccc1N1CCN(C(=O)c2ccc(S(=O)(=O)N3CCCCC3)cc2)CC1 | -7.8 | -4.3 | 103.3 | i | 0.9 | 24.1 | 166.3
Cc1ccc(SCCn2nc(C(=O)O)c3ccccc3c2=O)cc1 | -7.0 | nt | 93.3 | i | 0.93 | -65.0 | 152.5
CC(C(=O)Nc1sc2c(c1C(=O)NCc1ccco1)CCCC2)N1C(=O)c2ccccc2C1=O (centres undefined) | -1.7 | 0.1 | 101.8 | i | 1.01 | nt | nt
CCCC(=O)Nc1cccc(-c2nc3cc(C)c(C)cc3o2)c1 | 6.2 | -0.5 | 94.6 | i | 0.93 | nt | nt
COc1ccc(NC(=O)NCc2ccccn2)cc1OC | -7.2 | -1.0 | 98.2 | i | 0.97 | -2.9 | 81.2
O=C(Nc1cc2c(oc1=O)CCCC2=O)c1ccc(Cl)cc1 | -4.1 | -1.6 | 95.0 | i | 0.98 | 42.4 | 87.6
O=[N+]([O-])c1ccccc1NCCNc1ncc(C(F)(F)F)cc1Cl | -3.2 | -3.2 | 73.6 | i | 0.98 | -21.9 | 87.7
C(=N\N1CCN(C2c3ccccc3-c3ccccc32)CC1)/c1ccncc1 | -8.8 | -0.5 | 100.6 | i | 0.94 | 44.4 | 67.2

Another view of part of the listing above:
Order of values – PKD1 kinase inh	GALR2 agonist	RGS16-Gao HTS	HSV augment	HSV augment primary fold	INS promoter inh	INS promoter inh cell count
> CCOC(=O)C[n+]1c(C)csc1C
  8.1	-1.1	142.2	i	1.11	38.5	117.2
> Cc1ccc(SCCn2nc(C(=O)O)c3ccccc3c2=O)cc1
  -7.0	nt	93.3	i	0.93	-65.0	152.5

Remaining list, next part
SMILES | PKD1 kinase inh | GALR2 agonist | RGS16-Gao HTS | HSV augment | HSV augment primary fold | INS promoter inh | INS promoter inh cell count
C/C(=N\NC(=O)c1ccc(-c2ccccc2)cc1)C1C(=O)c2ccccc2C1=O | 2.7 | nt | 63.3 | i | 0.95 | -26.7 | 72.1
CCOc1ccc(NC(=O)CSc2nc3ccccc3c(=O)n2CCCC(=O)NCCCN2CCCC2=O)cc1 | 0.5 | nt | 107.1 | i | 0.94 | 50.0 | 58.6
COc1ccc(OC)c(CCNC(=O)CSc2ccsc2[N+](=O)[O-])c1 | 3.4 | nt | 96.7 | i | 0.94 | nt | nt
Cc1ccc(C(=O)OCC(=O)NC(C)C)cc1S(=O)(=O)N1CCOCC1 | -7.1 | nt | 103.9 | i | 1.02 | -33.3 | 84.4
CCOC(=O)C1C2C=CC3(CN(c4ccc(Cl)c(F)c4)C(=O)C13)O2 (centres undefined) | -8.4 | -1.2 | 99.7 | i | 1.16 | nt | nt
CC(C)(C)OC(=O)NC(=NCCCc1cn(CC(=O)N2CCN(C(=O)OC(C)(C)C)CC2)nn1)NC(=O)OC(C)(C)C | 0.4 | nt | 103.6 | i | 0.87 | nt | nt
Nc1ccc(C23CC4CC(CC(CO)(C4)C2)C3)cc1 | -5.5 | -1.3 | 104.6 | i | 1.01 | 35.1 | 159.1
COCCCn1c(=O)/c(=C\c2ccc(OC(F)F)c(OC)c2)s/c1=C(/C#N)C(=O)NCCOC | nt | nt | 103.2 | ? | nt | nt | nt
CCC(CC)C(=O)NCCc1cc2c(OC)ccc(OC)c2[nH]c1=O | -11.4 | -0.7 | 104.8 | i | 1.06 | 0.0 | 123.9
NC(=S)N/N=C/c1coc2ccc(Br)cc2c1=O | nt | nt | 101.0 | i | 0.98 | nt | nt
CCCCc1nc2sc3c(SCC(=O)NCc4ccco4)ncnc3c2c2c1CCC2 | 1.2 | 0.3 | 95.4 | i | 0.993 | 10.5 | 67.1
Cc1ccc2nc(N3CCN(Cc4ccc(F)cc4)C3=O)c(C)cc2c1 | 3.9 | -1.0 | 96.2 | i | 0.78 | 14.3 | 138.7
C=CCCC(=O)Nc1nc(C)c(-c2csc(Nc3ccccc3OC)n2)s1 | -2.3 | 1.9 | 103.2 | i | 0.88 | -2.2 | 138.6
O=C(N/N=C/c1cc2ccccc2[nH]1)c1ccccc1Cl | nt | nt | 87.4 | i | 0.8 | nt | nt
COc1cc(/C=C2\SC(=Nc3ccc(N4CCOCC4)cc3)N(C)C2=O)ccc1OC(C)C(=O)O (centres undefined) | -5.9 | 0.3 | 101.4 | i | 0.85 | 6.7 | 104.7
COc1ccc(NC(=O)CO/N=C2/CCCc3nonc32)c(OC)c1 | -3.5 | nt | 105.3 | i | 0.98 | -6.7 | 140.2
Cc1ccccc1Nc1nc(N)nc(CSc2nnnn2-c2ccccc2)n1 | -18.5 | -2.1 | 93.6 | i | 1.04 | nt | nt
COc1ccccc1/C=C(/C(=O)NCCCn1ccnc1)c1ccccc1 | -0.9 | nt | 101.3 | i | 1.11 | -46.1 | 81.4
COCCCNC(=O)c1ccc2c(=O)n(Cc3ccc(OC)cc3)c(=O)[nH]c2c1 | 0.7 | nt | 98.5 | i | 1.02 | nt | nt
CC(C)CCn1c(=O)c2ccccc2n2c(CN3C(=O)NC4(CCC(C)CC4)C3=O)nnc12 (centres undefined) | 1.4 | -3.8 | 102.8 | i | 0.62 | 15.2 | 89.8
CC(=O)Nc1c(NC(=O)CC#N)[nH]c2c(c1=O)c(=O)n(C)c(=O)n2C | 0.2 | nt | 115.4 | i | 0.98 | 33.3 | 118.7

Complete entries from above. Order of screens: PKD1 kinase inh, GALR2 agonist, RGS16-Gao HTS, HSV augment, HSV augment primary fold, INS promoter inh, INS promoter inh cell count
O=[N+]([O-])c1ccccc1NCCNc1ncc(C(F)(F)F)cc1Cl in the list: -3.2, -3.2, 73.6, i, 0.98, -21.9, 87.7
CC(C(=O)Nc1sc2c(c1C(=O)NCc1ccco1)CCCC2)N1C(=O)c2ccccc2C1=O (centres undefined) in the list: -1.7, 0.1, 101.8, i, 1.01, nt, nt
